Bioassay records deposited in PubChem BioAssay by National Center for Advancing Translational Sciences (NCATS).
Rango release inh – prevents RanGTP from dissociating the Rango-importin beta complex | O95149+P62826 | Biochemical FRET Rango-importin beta, RanGTP-induced dissociation | Potency, µM (highest dose often 46.1 µM), for inactives: at the top dose activity change, negative = inhibition | 0.071% of 340,000 active | AID 540253; active means falling FRET ratio curve, often poorly fitted, with flat reads before Ran was added; inconclusive means other falling curves, or compound fluorescence or quenching; inactive means flat or rising ratio curve;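 also: potency is read from the fitted curve at half-maximal effect; % of control where 0% means no effect; nearly all actives have a fitted effect of over 45% in size; -100% = wells without RanGTP and RCC1; the record marks most hits as doubtful in a second field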
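Rango (0.1 uM)–importin beta (0.25 uM) complex; RanGTP-RCC1 trigger; 45 min RT; CFP/YFP FRET read.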
miR-21 reporter – miR-21 reporter, rising signal; AID 2288; HeLa miR-21 FLuc reporter, luciferase, 48 h; 340,000 tested, under 10 active; Potency, µM (top dose mostly 38.3 µM), for the others: top-dose reporter change, positive = more light; active = well fitted rising curve with a large enough effect; inconclusive = small, poorly fitted or top-dose-only effect; inactive = no such curve, though single readings can be large or run the other way;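 also: % of control where 0% means no effect; miR-21 action dims this reporter so a rising signal means less miR-21 action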
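HeLa miR-21-FLuc reporter line, endogenous miR-21; 2000 cells/well in DMEM/10% FBS; compound titration up to ~40uM final, 48 h, 37 degree Celsius; luciferase detection reagent, 15 min lysis, CCD luminescence.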
Rango-impB inh – inhibitors of Rango-importin beta complex formation | Rango CFP/YFP FRET sensor + importin beta, 45 min | Potency, µM (doses to about 92.2 µM), inactives show at the top dose inhibition of complex formation | 0.031% of 340,000 active | AID 540263; active = rising FRET ratio curve, often small or poorly fitted; inconclusive = mostly compound fluorescence or quenching in the first reads; inactive = flat curves in all reads;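 also: potency is read from the fitted curve at half-maximal effect; 0% = DMSO wells and 100% = buffer wells lacking importin beta; nearly all actives have a fitted effect of over 15% in size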
Target sequence (Q14974 whole entry, looked up): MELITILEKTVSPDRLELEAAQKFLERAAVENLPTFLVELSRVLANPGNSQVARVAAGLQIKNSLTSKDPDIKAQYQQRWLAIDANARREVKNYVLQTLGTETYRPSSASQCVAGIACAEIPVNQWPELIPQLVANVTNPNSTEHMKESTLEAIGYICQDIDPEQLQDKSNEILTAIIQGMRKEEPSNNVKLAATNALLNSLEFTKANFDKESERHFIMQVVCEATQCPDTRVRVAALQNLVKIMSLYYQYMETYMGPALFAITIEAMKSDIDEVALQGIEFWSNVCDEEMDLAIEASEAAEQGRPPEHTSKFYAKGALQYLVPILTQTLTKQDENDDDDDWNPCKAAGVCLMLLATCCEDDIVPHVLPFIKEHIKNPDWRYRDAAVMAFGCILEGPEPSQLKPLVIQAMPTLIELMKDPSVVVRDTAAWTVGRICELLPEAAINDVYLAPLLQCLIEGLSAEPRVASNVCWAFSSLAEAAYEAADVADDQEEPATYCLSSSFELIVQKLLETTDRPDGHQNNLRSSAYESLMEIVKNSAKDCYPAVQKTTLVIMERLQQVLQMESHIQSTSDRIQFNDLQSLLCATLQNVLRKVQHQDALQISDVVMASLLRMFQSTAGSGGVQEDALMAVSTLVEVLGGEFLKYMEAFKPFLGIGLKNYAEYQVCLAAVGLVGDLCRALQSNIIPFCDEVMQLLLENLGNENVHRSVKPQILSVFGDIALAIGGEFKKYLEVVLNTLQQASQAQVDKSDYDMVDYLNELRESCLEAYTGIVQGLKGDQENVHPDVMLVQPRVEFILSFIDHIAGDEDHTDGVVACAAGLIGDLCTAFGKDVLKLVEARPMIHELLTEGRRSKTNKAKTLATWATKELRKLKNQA
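Inhibition scored from the CFP 486 nm/YFP 530 nm FRET ratio 45 min after adding 0.125 microM importin beta to 50 nM Rango biosensor preincubated 5 min with compound (room temperature, PBS with DTT, Tween-20, BSA). No-importin wells as positive control.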
GLA inh pH 4.5 – blocks human alpha-galactosidase A at pH 4.5 | activity change, negative = inhibition, % at 105 µM | P06280 | AID 1467 | purified enzyme, 4-MU-alpha-Gal fluorescence, pH 4.5 | 230,000 tested, under 10 active; inconclusive = small, poorly fitted or top-dose-only inhibition, or a rising curve; inactive = flat fitted curve, though single readings scatter; no compound was filed as active;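 also: 0% = full activity with enzyme and -100% = basal without enzyme; dose as in the result columns while the protocol names 77 µM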
The depositor's hits bear a star; u = inconclusive; x = no result given; & = joins results of further samples.

Values run as follows: miR-21 reporter | GLA inh pH 4.5 | Rango-impB inh | Rango release inh
CCNC(=O)COc1ccc(OCc2ccccc2)cc1
  -22.4% | -3.0 | -1.2% | -1.7%
CC(=O)Nc1ccc(S(=O)(=O)N(C)CC(=O)N/N=C/c2ccc(C(=O)O)cc2)cc1
  1.3% | x | u | 30.7%
COc1ccccc1NC(=O)C1CCN(S(=O)(=O)c2ccc3c(c2)NC(=O)CO3)CC1
  0.1% | x | -0.4% | -7.4%
COc1ccccc1NS(=O)(=O)c1ccc(C)c(C(=O)N2CCCC2)c1
  x | x | 0.6% | 4.2%
Cc1c(Cl)cccc1NC(=O)CCC(=O)N/N=C/c1ccc[nH]1
  -1.1% | 2.0 | -2.5% | 0.7%
COc1cccc(-n2c(Cc3cc(=O)[nH]c(=O)[nH]3)nnc2SCC(=O)Nc2ccccc2)c1
  -3.1% | 0.2 | -1.5% | 9.2%
CC(C)(C)C(=O)Oc1cccc(Nc2ncnc3ccccc23)c1
  -14.4% | x | -2.9% | 7.3%
O=C(Cc1ccc(Cl)c(Cl)c1)NNC(=S)NCC1CCCO1 (stereo not drawn)
  1.0% | x | -0.7% | -11.0%
Cc1cc(Br)ccc1NC(=O)CN(C)C(=O)c1ccc2ccccc2n1
  x | x | 2.1% | 12.4%
Cc1cc(C)cc(N(C(=O)CNS(=O)(=O)c2ccccc2)C(C(=O)NCc2ccccc2)c2ccc(C)o2)c1 (stereo not drawn)
  21.8% | -10.0 | -1.3% | 5.2%
CCOC(=O)Cc1csc(N(C)C)n1
  -0.4% | 0.2 | 0.5% | -0.5%
Cn1ncc2c(c(SCc3ccc(Cl)cc3Cl)nn2C)c1=O
  -7.1% | 3.8 | -1.0% | -8.0%
O=C(CNC(c1ccccc1)c1ccccc1)Nc1ccc(F)cc1
  -4.0% | -1.5 | 1.0% | 1.6%
S=C(Nc1ccccc1)Nc1ccccc1-n1cccc1
  -31.1% | -5.7 | -1.0% | -8.3%
O=C(Cc1ccccc1)NNC(=O)Cc1ccccc1
  -2.6% | -1.1 | u | -10.0%
CCc1ccccc1Oc1ccc(S(=O)(=O)N2CCN(C)CC2)cn1
  x | x | -2.6% | -22.7%
CC(=O)Nc1ccccc1OCC(=O)NC(C)c1ccccc1 (stereo not drawn)
  3.2% | 3.3 | -3.1% | -4.5%
O=C(CNC1CCCCC1)Nc1cccc(C(F)(F)F)c1
  -7.3% | x | 2.5% | -8.2%
Cc1ccccc1NS(=O)(=O)c1nnc(NC(=O)c2ccccc2C)s1
  -20.4%&-12.0% | x | 0.4% | 8.5%
NC(=S)N/N=C/c1ccc([N+](=O)[O-])cc1
  4.3% | -9.9 | -0.6% | 9.4%
Cc1cc(C(=O)CSc2nc(N)cc(N)n2)c(C)n1-c1cccc(F)c1
  -23.9% | -14.8 | 0.6% | 17.9%
Cc1cc(Cl)ccc1OCC(=O)Nc1ccc(CN2CCOCC2)cc1
  7.3% | x | 1.3% | -10.5%
CCOc1ccc(Nc2oc(-c3cccs3)nc2C#N)cc1
  -51.4% | 9.9 | u | 1.0%
O=C(N/N=C/c1ccccc1O)C(=O)N1CCCCCC1
  0.7% | x | 1.3% | 5.2%
CCN(c1ccc(NC(=O)CCc2nc3sc4c(c3c(=O)[nH]2)CCCC4)cc1)C(C)C
  x | x | u | -21.7%
O=C(c1ccc(NC2=NC3CS(=O)(=O)CC3S2)cc1)N1CCc2ccccc2C1 (stereo not drawn)
  -2.6% | 5.5 | 6.5% | -0.5%
CCOC(=O)C(C#N)=C1CCN(Cc2ccccc2)CC1
  -12.6% | x | u | -21.4%
COc1ccc(-c2nc(NC(=O)CSc3nnc4ccccn34)ns2)cc1
  1.6% | 5.6 | 1.7% | -3.6%
CCC(=O)c1ccc(OCC(O)CN2CCN(S(=O)(=O)N3CCCCC3)CC2)cc1 (stereo not drawn)
  13.4% | 2.3 | -0.1% | 1.4%
O=C(NCCN1CCOCC1)c1cnn2c(-c3ccccc3)cc(-c3ccccc3)nc12
  -2.5% | -1.2 | u | -29.4%
CN(C)c1ccc(Nc2nc(N)c([N+](=O)[O-])c(N3CCOCC3)n2)cc1
  -2.0% | -5.9 | -0.4% | -1.5%
C[C@@H](CSc1ccccc1)CN1CC[C@H](NC(=O)OCc2ccccc2)CCC1=O
  8.2% | x | -0.4% | -11.1%
COc1ccc(S(=O)(=O)N2CCOC2CNC(=O)C(=O)NCCc2ccccc2OC)cc1C (stereo not drawn)
  11.3% | x | -0.5% | 13.2%
O=C(CCNS(=O)(=O)c1ccccc1F)NCc1ccc2c(c1)OCO2
  -1.9% | -3.4 | -0.1% | -2.1%
COc1ccc(-c2noc(CN3CCCCC3c3nccn3C)n2)cc1 (stereo not drawn)
  -1.1% | 4.0 | -0.5% | -10.4%
CC(C)(C)OC(=O)NCc1ccc(NC(=O)c2nc[nH]c2C(=O)NCCCCNC(=O)c2[nH]cnc2C(=O)Nc2ccc(CNC(=O)OC(C)(C)C)cc2)cc1
  x | x | 0.7% | -1.7%
O=C(Cc1ccc(-n2c(=O)c3sccc3n(CC(=O)Nc3ccccc3)c2=O)cc1)NCc1ccco1
  0.0% | -6.8 | u | -1.8%
O=C(CN1CCCCC1)Nc1cc(Cl)ccc1Oc1ccccc1
  -1.9% | -3.7 | -3.1% | 4.2%
O=C(NCCN1CCOCC1)c1ccc(=O)oc1
  0.4% | 1.1 | -0.4% | -13.5%
Cc1cn([C@H]2C[C@H](O)[C@@H](CCC(=O)NCc3ccco3)O2)c(=O)[nH]c1=O
  x | x | -2.7% | 5.3%
Cc1csc(NC(=O)CCc2c(C)nc3cc(-c4ccc(Cl)cc4)nn3c2C)n1
  17.8% | 14.3 | -1.5% | -8.2%
Cc1ccc(N=Cc2cccc(O)c2O)c(C)c1
  1.1% | -16.9 | x | x
CC(=O)NCCn1c(SCC(=O)NCCc2ccc(S(N)(=O)=O)cc2)nc2ccccc2c1=O
  0.3% | -7.6 | 2.0% | 10.1%
CC1CCCCC1NCC(=O)Nc1ccccc1C(=O)Nc1ccccc1 (stereo not drawn)
  x | x | 9.0% | -0.7%
COc1ccc(NC(=O)c2ccc3c(c2)OCO3)cc1Cl
  -38.0% | -7.8 | -2.1% | -9.2%
C=CCn1c(-c2ccoc2)n[nH]c1=S
  -3.6% | 7.2 | 5.2% | 11.4%
CCN(CC(=O)Nc1ccccc1OC)C(=O)CN1C(=O)NC(C)(c2ccccc2)C1=O (stereo not drawn)
  x | x | -0.4% | 1.8%
Cc1cccc(CSc2nnc(-c3ccco3)o2)c1
  -59.7% | 2.2 | -3.0% | -0.6%
O=S1(=O)N=C(N(CCO)/N=C/c2ccccc2F)c2ccccc21
  -14.2% | x | -4.2% | -5.4%
C=CCNC(=O)/C(C#N)=C/c1cn(-c2ccccc2)nc1-c1ccc(OC)c([N+](=O)[O-])c1
  -13.4% | 5.4 | -0.5% | -4.1%
Cc1sc2ncn(CC(=O)NCCCC(=O)NCc3ccc(F)cc3)c(=O)c2c1C
  -2.3% | x | u | 13.1%
Cc1csc(=O)n1CC(=O)OCC(=O)Nc1ccc(C(N)=O)cc1
  x | x | -0.9% | -6.8%
COc1cccc(CNC(=O)N2CCN(c3ccccc3Cl)CC2)c1
  -3.2% | x | -2.6% | -9.2%
N#CCCN(C(=O)c1ccc2c(=O)n3c(nc2c1)CCCCC3)c1ccccc1
  -8.1% | x | 0.2% | -5.1%
CCC(C)NC(=O)c1ccc([N+](=O)[O-])c(Cl)c1 (stereo not drawn)
  -3.6% | -3.2 | 0.0% | -7.2%
Cc1cc[n+](-c2[nH]c(=O)sc2/C=N/N=C(\[O-])c2ccccc2)cc1C
  -26.6% | -14.4 | u | -13.4%
O=C(N/C(=C\c1ccc(F)cc1)C(=O)N1CCCCCC1)c1ccccc1
  -0.8% | -6.5 | 3.8% | -3.5%
CCOC(=O)c1c(C)[nH]c(N=Nc2ccc(C)cc2C)c1C
  -66.9% | -6.5 | 1.0% | -20.2%
CCc1ccccc1NC(=O)CCc1nc(-c2ccc(C)cc2)no1
  0.4% | -2.3 | -0.7% | 11.3%
COc1ccccc1NC(=O)c1cnc(SCC(=O)NCCc2ccccc2)n(C)c1=O
  x | x | 0.3% | 17.9%

Next part:
Values run as follows: miR-21 reporter | GLA inh pH 4.5 | Rango-impB inh | Rango release inh
Cc1cn([C@H]2C[C@H](O)[C@@H](COS(=O)(=O)O)O2)c(=O)[nH]c1=O
  x | x | -5.2% | -0.9%
CSCc1c(C(=O)Nc2ccc3c(c2)OCO3)oc2ccccc12
  -21.3% | x | 1.7% | 3.8%
O=C(Cc1ccc([N+](=O)[O-])cc1)N/N=C/c1cccs1
  -1.8% | x | -3.3% | -21.4%
COc1ccc(C2N(c3ccc(OC)cc3)C(=S)N3CCCN23)cc1 (stereo not drawn)
  -15.3% | 2.4 | -0.2% | -0.4%
COc1ccc(NC(=S)NC(NC(=O)c2cccc(Cl)c2)C(Cl)(Cl)Cl)c([N+](=O)[O-])c1 (stereo not drawn)
  u | -5.2 | 4.6% | -7.0%
O=C(c1ccccc1)C(Cn1cncn1)C(Sc1ccccc1)c1ccccc1 (stereo not drawn)
  u | 5.3 | -3.4% | 3.0%
CCCCCCn1c(COc2ccccc2F)nnc1SCC(=O)N1c2ccccc2NC(=O)C1(C)C
  19.9% | -19.2 | -0.8% | -3.5%
CCOc1ccc2[nH]c(=O)c(CN(CCO)C(=O)CC)cc2c1
  -1.8% | 3.3 | -0.9% | -2.4%
Cc1ccc(C)c(N2CCN(S(=O)(=O)c3ccc4c(c3)CCC(=O)N4)CC2)c1
  -6.3% | -3.2 | x | x
CC(C)(C)C(=O)COC(=O)c1cccc(NC(=O)c2ccco2)c1
  -21.9% | -1.9 | -0.1% | -10.5%
CCOCCCN(CC(=O)NC1CCCC1)C(=O)C(=O)Nc1ccc2c(c1)OCCO2
  -0.3% | x | -0.4% | 5.9%
Cc1cccnc1NC(=O)c1ccc(C(=O)c2ccccc2)cc1
  x | x | -5.8% | -8.6%
O=C(COC(=O)C1CC1)Nc1ccccc1Sc1ccccc1
  1.9% | -16.2 | -2.2% | 7.7%
Cc1cc(C)n2nc(SCC(=O)N(C)C)nc2n1
  -1.1% | 0.5 | 0.1% | -8.0%
Cc1n[nH]c(C)c1S(=O)(=O)N1CCc2ccccc2C1
  0.3% | x | 4.8% | 8.1%
C=CCn1c(CCCOc2ccc(Cl)cc2Cl)nnc1SCC(=O)Nc1nccs1
  0.7% | 9.4 | -1.7% | -1.9%
O=C(NCc1cccc(C(F)(F)F)c1)C1CCCN(c2ncccn2)C1 (stereo not drawn)
  -1.3% | -1.0 | -5.8% | 7.6%
CCCCOc1ccc(-c2ncc(N)cn2)cc1
  -38.1% | 1.9 | 0.5% | -6.1%
COc1ccc(-n2nc3c(N4CCC(C(=O)NCc5ccco5)CC4)nnc(C)c3c2C)cc1
  -7.6% | x | u | 0.1%
CN(C)c1ccc(S(=O)(=O)N2CCCCC2)cc1NC(=O)COc1ccccc1F
  -1.7% | -9.6 | 2.4% | -7.3%
CC(C)CC1(C)NC(=O)N(CC(=O)Nc2cccc(S(=O)(=O)N(C)c3ccccc3)c2)C1=O (stereo not drawn)
  -2.5% | 0.0 | -3.4% | -13.3%
COc1ccc(Cc2nnc(SCC(=O)NCC3CCCO3)o2)cc1 (stereo not drawn)
  -2.6% | 2.6 | -1.5% | -5.6%
COc1ccccc1OCC(=O)Nc1cccc(C(=O)N2CCOCC2)c1
  -1.5% | 9.4 | -1.6% | -5.9%
N#Cc1ccccc1NC(=O)COC(=O)c1cccs1
  x | x | -1.5% | 0.1%
CCCN1C2CCCC1CC(NC(=O)c1cccc(OC)c1)C2 (stereo not drawn)
  6.7% | x | u | 0.5%
Cc1oc(-c2cccs2)nc1CS(=O)CC(=O)NCCCOC(C)C (stereo not drawn)
  -3.9% | 3.5 | -0.3% | -11.3%
Cc1cc(C)c(NC(=O)CS)c(Cl)c1
  -0.8% | 2.0 | 3.8% | u
CC1CCCCC1NC(=O)CSc1nncn1N (stereo not drawn)
  0.8% | -2.8 | 2.7% | 12.6%

This is a subset; count on the stated rates, not on these rows.
